Assay outcomes: PubChem BioAssay, National Center for Advancing Translational Sciences (NCATS)
TRPV1 PAM = human TRPV1 potentiation. TRPV1-expressing cells, Fluo-8 calcium influx, capsaicin EC20 potentiation; host cell line not named in the record; control for the full effect not named in the record. AID 540277. 0.02% of 320,000 active. potentiation, % at 8.33 µM; active means potentiation above 80%; inconclusive means 30% to 80%; inactive means below 30%; note: 0% is about no effect
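TRPV1-expressing cells were cultured overnight at 35.5C and loaded with Fluo-8 calcium dye for 40 to 90 min at room temperature. After a 10 s baseline, compound was added and calcium influx was read kinetically for 3 min (ex 480/em 520 nm).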
TRPML1 blocker = human mucolipin-1 channel inhibition | 0.02% of 390,000 active | TRPML1-inducible cells, Ca2+ dye fluorescence, FDSS; stronger effect = lower value; inhibition of EC80 agonist-evoked calcium signal | AID 624415 | Q9GZU1 | activity change, negative = inhibition, % (test concentration not listed); in the data active means activity change below about -50%; inconclusive means about -30% to -50%; inactive means above about -30%;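 note: stimulus is agonist 54-4 at its EC80 concentration; % is set by controls: 0 for no effect and ±100 for the full control effect; compound concentration not given in the record; the text of the record puts the active cut at -80%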
Target sequence (Q9GZU1 whole entry, looked up): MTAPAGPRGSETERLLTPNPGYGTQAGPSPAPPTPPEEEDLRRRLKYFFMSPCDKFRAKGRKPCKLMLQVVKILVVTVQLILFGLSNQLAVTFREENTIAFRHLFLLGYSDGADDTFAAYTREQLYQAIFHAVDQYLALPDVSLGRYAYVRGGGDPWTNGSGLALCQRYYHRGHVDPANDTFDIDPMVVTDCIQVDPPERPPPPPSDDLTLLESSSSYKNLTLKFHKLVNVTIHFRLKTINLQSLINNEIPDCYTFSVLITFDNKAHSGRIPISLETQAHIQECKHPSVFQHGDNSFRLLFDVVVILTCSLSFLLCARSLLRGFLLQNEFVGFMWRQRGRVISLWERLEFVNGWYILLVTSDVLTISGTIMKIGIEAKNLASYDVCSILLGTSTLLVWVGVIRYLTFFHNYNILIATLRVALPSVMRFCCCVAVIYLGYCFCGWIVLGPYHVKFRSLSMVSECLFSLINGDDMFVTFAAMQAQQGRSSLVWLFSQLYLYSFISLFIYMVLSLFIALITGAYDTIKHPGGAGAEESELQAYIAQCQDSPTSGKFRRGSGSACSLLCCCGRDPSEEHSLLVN
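Tet-induced TRPML1-DL cells loaded with Ca8 no-wash calcium dye were read kinetically on FDSS. Compound addition was followed by EC80 agonist 54-4 (4 uM final); inhibition was read over 110 s.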
gsp antag = antagonists of gsp mutant (McCune-Albright syndrome) | gsp-mutant cells, cAMP HTRF, 30 min; control for the full effect not named in the record | Potency, µM (highest dose often 76.9 µM), for the others: at the top dose activity change, negative = inhibition, actives largely listed as inhibitors | 0.4% of 340,000 active; active = falling curve of any shape with a large fitted effect; inconclusive = falling curve, mostly with a smaller effect; inactive = flat or rising curve; cell line not stated here;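 note: intracellular cAMP measured with PDE inhibitor Ro 20-1724 present during compound exposure; potency is the fitted concentration of half-maximal effect; % is set by controls: 0 for no effect and ±100 for the full control effect; nearly all actives have a fitted effect of over 65% in size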
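G418-selected cells were plated in DMEM/10% FBS for 16-24 h at 37C, then treated with compounds plus the PDE inhibitor […] (300 uM solution added) for 30 min at 37C. Intracellular cAMP was measured by HTRF after 30 min lysis at room temperature.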
gsp ag = activates gsp, the McCune-Albright syndrome mutation; AID 624287; 0.13% of 340,000 active; Potency, µM (highest dose often 76.9 µM), for the others: at the top dose activation (cAMP increase), usual class: activators; gsp mutant cells, cAMP HTRF, 30 min; control for the full effect not named in the record; active = well fitted activation curve with a large enough effect; inconclusive = small, poorly fitted or top-dose-only effect, or another doubt; inactive = no such curve, though single readings can be large or run the other way; cell line not stated here;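 note: phosphodiesterase inhibitor Ro 20-1724 added with compounds to block cAMP breakdown; potency is the fitted concentration of half-maximal effect; nearly all actives have a fitted effect of over 60% in size; about a fifth of the inactives were tested at one dose only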
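Cells in DMEM/10% FBS with G418 were pretreated with compounds in DMSO plus […] (300 uM stock) for 30 min at 37C. cAMP was measured by HTRF (cAMP-d2 plus anti-cAMP antibody-K) after 30 min at room temperature.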
Menin MLL FP FL = inhibitors of human menin-MLL interaction, wild-type MLL peptide; Fluorescence polarization, fluorescein-MLL peptide displacement from menin; FP activity change, % at 61.4 µM; 290,000 tested, under 10 active; AID 1766; inconclusive = falling polarisation curve, or a change in total fluorescence; inactive = total fluorescence flat and polarisation flat or rising; no compound was filed as active; the % refers to the polarisation; negative = inhibition;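 note: % of control where 0% means no effect; inhibitors lower the polarisation; unlabelled MLL peptide was the positive control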
Sfp PPTase inh = inhibitors of Bacillus subtilis Sfp phosphopantetheinyl transferase; AID 1490; Biochemical Sfp PPTase activity, qHTS; 3.5% of 310,000 active; Q9F4F7; Potency, µM, for inactives: max response, negative = inhibition, usual class: inhibitors; active = well fitted inhibition curve with a large enough effect; inconclusive = small, poorly fitted or top-dose-only effect, or another doubt; inactive = no such curve, though single readings can be large or run the other way;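 note: the enzyme is Sfp with the accession as filed and its product quenches rhodamine fluorescence; potency is the fitted concentration of half-maximal effect; 0% = enzyme reaction without inhibitor and -100% = no enzyme wells; top concentration of the series not given in the record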
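Compounds were incubated with enzyme (final 15 nM) for 15 min at room temperature before substrate addition started the reaction. Fluorescence at 525 nm excitation, 598 nm emission was recorded immediately and after 30 minutes.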
ClpP mod = qHTS Assay for Activators of ClpP; ATP-dependent Clp protease proteolytic subunit (Bacillus subtilis (strain 168)), P80244; purified B. subtilis ClpP, FRET peptide cleavage, 20 min; Potency, µM (titrated, usually from 57.5 µM), inactives show at the top dose activity change, negative = active; 1.9% of 340,000 active; active = well fitted falling curve with a large enough effect; inconclusive = small, poorly fitted or top-dose-only effect; inactive = no such curve, though single readings can be large or run the other way; note: potency is the fitted concentration of half-maximal effect; the source files actives as falling curves though it sought activators and does not explain the sign; nearly all actives have a fitted effect of over 65% in size; many hits overshoot -100%
Target sequence (P80244 whole entry, looked up): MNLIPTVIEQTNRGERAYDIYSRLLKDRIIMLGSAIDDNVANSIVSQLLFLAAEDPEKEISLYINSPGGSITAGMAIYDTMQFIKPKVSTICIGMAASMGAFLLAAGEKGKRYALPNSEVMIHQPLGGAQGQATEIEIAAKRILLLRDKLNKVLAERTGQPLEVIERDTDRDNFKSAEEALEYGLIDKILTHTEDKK
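Purified B. subtilis ClpP, 10 microg/mL final in Tris/HCl pH8 with KCl, BSA, glycerol and Tween-20, cleaved an Abz/nitrotyrosine-quenched decapeptide. Fluorescence (ex 320, em 430) was read at 0 and 20 min at room temperature. Delta was normalized to 5.8 microM ADEP and DMSO/no-enzyme controls.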
* hit, by the source's call; ? = inconclusive; / = not tested or not shown; & = joins results of further samples; [ ] = dose if it differs, or a comment.

Fields – Menin MLL FP FL	ClpP mod	Sfp PPTase inh	TRPML1 blocker	gsp antag	TRPV1 PAM	gsp ag
- COc1cc2c(cc1OC)CN(C1CCC(C)CC1)CC2 (stereo not given)
  0.8	0.4%	8%	-6	11%	-3	-26%
- CC(/C=C/c1ccc(N(C)C)cc1)=N/N=C1/NC(=O)CC(C(=O)Nc2ccc(Cl)cc2)S1 (stereo not given)
  ?	-2.6%	5%	-10	-1%	3	0%
- CC(=O)Nc1ccccc1C(=O)C(=O)Nc1cccc(Br)c1
  -0.3	-0.7%	21%	2	-18%	-9	36%[15.4 µM]
- COc1cccc(C(=O)Nc2cccc(C(=O)NCC(C)C)c2)c1
  5.4	0.9%	-4%	1	-13%	9	-41%[inhibitor]
- COC(C(=O)Nc1ccc(F)cc1)c1ccccc1 (stereo not given)
  -0.9	0.0%	-1%	6	18%	4	-1%
- COc1cc(C(=O)NC2CCCc3ccccc32)ccc1OCC(=O)Nc1ccc(F)cc1 (stereo not given)
  4.1	/	10%	2	?	6	12%[15.4 µM]
- CCc1cc2c3c(c1)C1(C(=O)N3C(C)(C)CC2C)C(C#N)=C(N)N2C(=C1C#N)Nc1ccccc12 (stereo not given)
  6.6	-3.7%	5%	25	-24%	-13	1%
- O=C(OCC1COc2ccccc2O1)c1ccccc1F (stereo not given)
  0.8	-1.1%	3%	-11	-4%	-27	1%
- COc1cccc(NC(=O)N2CCCC(C(=O)Nc3ccccc3OC)C2)c1 (stereo not given)
  1.7	0.0%	11%	-7	5%	-20	-3%
- CC(C)c1nc2sc(C(=O)O)c(N)c2c2c1CCCC2
  -0.4	/	56µM*	-7	7%	9	12%[15.4 µM]
- Cc1ccccc1OCCNC(=O)c1ccccc1Sc1ccccc1C#N
  -0.1	-18%	15%	3	-14%	0	-12%
- O=C(NC1CCCCC1)C(c1ccccc1)N(Cc1ccco1)C(=O)c1csnn1 (stereo not given)
  0.5	/	-4%	30	?	-3	-6%
- Cc1ccccc1S(=O)(=O)NC1OC(=O)C(Oc2ccccc2)=C1Br (stereo not given)
  0.2	/	-2%	5	/	-16	11%[15.4 µM]
- O=C1NC(=Nc2ccccc2Cl)S/C1=C\c1ccc(C(=O)O)cc1
  5.4	-0.6%	14%	21	-17%	?	21%
- CN(C)/C=C/C(=O)c1ccc(Br)s1
  4.8	-1.7%	7%	?	0%	-37	?

Fields – Menin MLL FP FL	ClpP mod	Sfp PPTase inh	TRPML1 blocker	gsp antag	TRPV1 PAM	gsp ag
- Cc1cccc(C)c1NC(=O)c1cc(S(=O)(=O)N2CCOCC2)ccc1F
  4.5	-2.1%	-8%	-6	4%	-2	2%
- O=C(c1ccoc1)N1CCCC(N2CCN(c3cccc(Cl)c3)CC2)C1 (stereo not given)
  /	?	10%	-11	-6%	-8	16%
- CCn1c(SCC(=O)Nc2ccc(C)cc2)nnc1-c1ccc(O)cc1
  2.3	-4.5%	22%	-3	?	5	4%
- O=C(NNC(=O)c1ccccc1[N+](=O)[O-])Nc1ccccc1C(F)(F)F
  -2.6	-1.2%	22%	-10	5%	21	7%
- CC(=O)[C@@]1(O)CC[C@H]2[C@@H]3CCC4=CC(=O)CC[C@]4(C)[C@H]3CC[C@@]21C
  2.0&1.4	0.0%	3%&3%	-13	-15%	-6	/
- COC(=O)c1ccc(NC(=O)CCn2c(=O)oc3ccccc32)cc1
  -1.1	-3.2%	-1%	-12	-6%	-10	-32%[inhibitor]
- CCN(C(=O)COC(=O)c1[nH]c(C)c(C(C)=O)c1C)C1CCS(=O)(=O)C1 (stereo not given)
  -3.1	2.1%	9%	-7	14%	3	1%
- CCCCNc1nc2sc3c(c2c(=O)n1-c1cccc(Cl)c1)CCN(C)C3
  25	-1.6%	14%	-3	-5%	5	5%[15.4 µM]
- COc1ccc(OCCN2CCN(C3CC(=O)N(CCC(C)C)C3=O)CC2)cc1 (stereo not given)
  -0.4	0.1%	11%	45	6%	10	1%
- COc1ccc(CN(CC(=O)NCC2CCCO2)C(=O)CCC(=O)Nc2nccs2)cc1 (stereo not given)
  -1.6	/	-3%	7	8%	27	-25%[15.4 µM]
- Cc1c(C#N)c2ncnc(-c3ccccc3)c2n1-c1ccccc1
  -2.4	35µM*	3%	10	-25%	5	28%
- Cc1cc(C)n2c(SCC(=O)N(C)C3CCCCC3)nnc2n1
  2.8	-5.4%	18%	-2	2%	1	-31%[inhibitor]
- CN=C1SC(CC(=O)Nc2ccc(F)cc2F)C(=O)N1/N=C(\C)c1cccc(OCC(=O)O)c1 (stereo not given)
  7.2	/	5%	-26	3%	/	-3%[15.4 µM]
- S=c1nc2ccccc2c2nc(-c3cccnc3)[nH]n12
  1.6	0.3%	?	/	-15%	-2	0%
- COc1ccc(CN(C)C(C)C(=O)Nc2ccc(S(=O)(=O)N3CCCC3)cc2)c(OC)c1OC (stereo not given)
  1.6	/	3%	/	/	-7	/

Fields – Menin MLL FP FL	ClpP mod	Sfp PPTase inh	TRPML1 blocker	gsp antag	TRPV1 PAM	gsp ag
- CCN(CCNS(=O)(=O)c1ccc2[nH]c(=O)sc2c1)c1ccccc1
  0.3	2.1%	14%	-2	-11%	2	?
- COC(=O)c1sccc1S(=O)(=O)NCc1ccc(S(N)(=O)=O)cc1
  /	-1.5%	5%	-8	12%	8	-67%[inhibitor]
- CC(=O)c1ccc(NC(=O)CN2c3cccc4cccc(c34)S2(=O)=O)cc1
  /	/	/	-1	-17%	/	?
- O=C(CSc1nc2ccccc2o1)NCCOc1ccccc1
  0.8	0.9%	4%	5	-3%	-12	3%
- O=C(O)CSc1nc(-c2cccs2)cc(C(F)(F)F)n1
  -3.6	/	29%	21	-19%	?	13%[15.4 µM]
- COCCNc1c(-c2cc3ccc(C)c(C)c3[nH]c2=O)nc2ccccn12
  0.8	/	12%	-13	4%	8	-2%[15.4 µM]
- O=C(c1ccco1)N(Cc1ccc(Cl)cc1)Cc1ccco1
  /	-2.2%	1%	75	6%	-13	19%
- CCN1/C(=C2/SC(=S)N(NC(C)=O)C2=O)Sc2ccc(OC)cc21
  ?	-0.3%	-12%	9	?	0	-24%
- CCN(/C=N/c1sc2c(c1C#N)CC(C)(C)NC2(C)C)CC
  1.0	0.4%	0%	54	3%	-7	-107%[inhibitor]
- O=C(O)c1ccc(S(=O)(=O)N2CCCc3ccccc32)cc1
  -2.4	-1.4%	6%	4	-7%	-3	22%
- Cc1ccccc1OCC(=O)NCCN1CCCC1
  -0.6	3.3%	-9%	8	11%	-6	3%
- CCOc1ccccc1Nc1nc(-c2sc(NC(=O)c3cccc(Cl)c3)nc2C)cs1
  1.8	-0.3%	-20%	3	5%	8	/
- Cc1ccc(S(=O)(=O)N2CCCC(C(=O)NCCC(C)C)C2)cc1 (stereo not given)
  -1.3	/	5%	2	-3%	9	-8%[15.4 µM]
- O=C(CN1CCCC1)Nc1cc(F)ccc1F
  -3.8	-1.3%	11%	-10	4%	-6	18%
- COc1cccc(CC(=O)Nc2ccc(F)c(S(=O)(=O)N3CCOCC3)c2)c1
  /	/	/	7	-8%	/	5%[15.4 µM]

Fields – Menin MLL FP FL	ClpP mod	Sfp PPTase inh	TRPML1 blocker	gsp antag	TRPV1 PAM	gsp ag
- Cc1nc(Nc2nc3ccccc3o2)nc(C)c1C
  -0.4	/	8%	-7	-13%	-9	-13%[15.4 µM]
- N#Cc1ccc(S(=O)(=O)N2CCCN(c3ccc(C(F)(F)F)cn3)CC2)cc1
  0.2	/	-8%	18	?	-25	-7%[15.4 µM]
- Cc1ccc(S(=O)(=O)CCc2nnc(N)s2)cc1
  2.4	-3.4%	17%	-4	4%	-9	7%
- Cc1ccc(N=C2NC(=O)/C(=C/C=C/c3ccco3)S2)cc1C
  ?	-1.9%	?	13	-10%	-8	-4%
- CCOc1cc(CNC(CC)CO)ccc1OCC(=O)Nc1cccc(C(F)(F)F)c1 (stereo not given)
  -2.4	2.5%	10%	-2	14%	-14	-12%
- CC1C(=O)Nc2ccccc2N1C(=O)c1c(F)cccc1F (stereo not given)
  -5.3	-1.0%	14%	-2	5%	-14	-15%
- COc1ccccc1CNC(=O)c1cc2c(=O)[nH]c3ccccc3c2n1C
  0.7	/	-15%	/	/	-7	/
- CC1CC(C)CN(S(=O)(=O)c2ccc(C(=O)N(c3ccccn3)C3CCCCC3)cc2)C1 (stereo not given)
  -3.6	/	-5%	17	?	-30	6%
- CC(=O)c1nc2ccccc2n1S(=O)(=O)c1ccc(Cl)cc1
  1.4	?	8%	-18	3%	-3	36%
- COc1ccc(C(=O)O/N=C(\N)c2cccc(C)c2)cc1OC
  -1.7	-1.6%	3%	/	6%	3	16%
- Cc1ccc(S(=O)(=O)c2c(N)n(/N=C/c3ccco3)c3nc4ccccc4nc23)cc1C
  ?	14µM*	-9%	0	-10%	6	-8%
- CC1=NCC(C)c2c1[nH]c1ccccc21 (stereo not given)
  8.3	-29%	-13%	16	3%	?	9%
- O=C(CCN1C(=O)C2C3C=CC(C4CC34)C2C1=O)OCC(=O)c1ccccc1 (stereo not given)
  /	1.5%	10%	13	-2%	1	-45%[inhibitor]

Fetched by structure from above (5):
Fields – Menin MLL FP FL	ClpP mod	Sfp PPTase inh	TRPML1 blocker	gsp antag	TRPV1 PAM	gsp ag
- Cc1ccc(S(=O)(=O)CCc2nnc(N)s2)cc1
  2.4	-3.4%	17%	-4	4%	-9	7%
- CC1=NCC(C)c2c1[nH]c1ccccc21 (stereo not given)
  8.3	-29%	-13%	16	3%	?	9%
- Cc1nc(Nc2nc3ccccc3o2)nc(C)c1C
  -0.4	/	8%	-7	-13%	-9	-13%[15.4 µM]
- O=C(CCN1C(=O)C2C3C=CC(C4CC34)C2C1=O)OCC(=O)c1ccccc1 (stereo not given)
  /	1.5%	10%	13	-2%	1	-45%[inhibitor]
- Cc1ccc(N=C2NC(=O)/C(=C/C=C/c3ccco3)S2)cc1C
  ?	-1.9%	?	13	-10%	-8	-4%

Not a hit list. About 4.9% of those tested had a hit in this group.
